Autofluor counter = compound fluorescence in toxin protease inhibitor counterscreen. fluorescence intensity (no concentration beside the values). 3.1% of 360,000 active. compound autofluorescence counterscreen, microsphere flow cytometry; active compounds read high. AID 624483;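 active = at least 3 SD above the mean of all compounds, about 16000 in these data; inconclusive = too few beads counted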;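 also: 100 nL of 1 mM stock went into each well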
Sa RN4220 lethal = S. aureus RN4220 growth inhibition | OD600, 16 h | inhibition, % (no concentration beside the values) | 0.33% of 330,000 active | AID 1259311;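 active = z-score of -3 or lower and OD600 up to 0.18 on both plates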;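 also: plate controls were untreated cells for no effect and reference antibiotic for full effect; stock transfer was 100 nL into about 80 µL; one replicate is shown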
BJeLR lethal = BJeLR cell viability loss | AID 1554 | 0.17% of 300,000 active | inhibition, % (no concentration beside the values) | BJeLR (HRASV12) viability, CellTiter-Glo ATP luminescence, 48 h; reference of the scale not given here;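 active = replicate mean above 50%; inconclusive = above 50% but judged a plate artefact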;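 also: 50 nL library stock added to about 25 µL; numbers are from one replicate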
Mtb hypoxia rep = Mtb hypoxia fluorescent reporter inhibition; AID 1159583; M. tuberculosis hypoxia-regulated fluorescent reporter, fluorescence; fluorescence inhibition, % (concentration not given with the values); 0.1% of 300,000 active;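 active = 35 to 45% if threefold the growth effect, above 45% if 1.5-fold the growth effect; inactive = the rest, general growth blockers included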;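 also: wells of about 50 µL received 100 nL stock; 0% = vehicle wells and 100% = reference inhibitor wells; whole bacteria with a GFP reporter of the hypoxia response; strong numbers were not always called active; many hits fall short of the cut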
PrP UTR inh = inhibition of PrP 5' UTR reporter expression. cell-based PrP 5' UTR mRNA reporter, plate reader. inhibition, % (no concentration beside the values). 0.35% of 340,000 active;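 active = every replicate at 50% or more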;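 also: 0 = median of the neutral control wells; tested in H4 reporter cells; numbers are from one replicate; inactives centre near -14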
ugtP null kill = growth inhibition of S. aureus ugtP deletion strain; S. aureus RN4220 ugtP deletion, OD600 growth, 16 h; some inactives read as strong as hits; growth inhibition, % (test concentration not listed); 0.54% of 330,000 active; AID 1259309;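 active = z-score under -3 and OD600 up to 0.15 on both plates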;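 also: plate controls were untreated wells for no effect and antibiotic for full effect; wells of about 80 µL received 100 nL stock; the first replicate is given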
Mtb hypoxia rep growth = also measured in Mtb hypoxia rep; calls as there; growth inhibition, %; measured here: M. tuberculosis growth (absorbance);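 0% = vehicle and 100% = reference antibiotic; read after six days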
* hit, by the source's call; ? = inconclusive; · = not tested or not shown; & = joins results of further samples.

SMILES	Autofluor counter	Sa RN4220 lethal	BJeLR lethal	Mtb hypoxia rep	Mtb hypoxia rep growth	PrP UTR inh	ugtP null kill
Cc1cccc(C)c1NC(=S)N=CN(C)C	·	5.3	·	3	-2	·	9
O=C(O)C1C2C=CC(C2)C1C(=O)N1CCc2ccccc21 (centres undefined)	3667	8.0	-17	5	7	-16	11
CCOCCc1nnc(NC(=O)CSc2ccccc2)s1	4115	1.7	0	·	·	-12	3
COC(=O)CCCC(=O)N1CCCC(CNS(=O)(=O)c2ccc(OC)cc2)C1 (centres undefined)	4626	3.5	-8	-7	0	-26	5
COCCNC(=O)C(OC(=O)c1ccco1)c1ccccc1F (centres undefined)	3843	-0.5	-3	0	16	-22	1
C#CCN(C(=O)c1ccc(OC)c(OC2CCN(C(C)C)CC2)c1)C1CCCCC1	5745	0.3	-1	12	6	-3	6
O=C(CSc1nc2[nH]ncc2c(=O)n1-c1ccccc1Cl)N1CCCC1	4511	2.6	-1	12	8	-68	1
O=C(NCCc1ccccc1)C(=O)NCC1(c2ccccc2)CCCC1	9161	2.7	2	12	11	-30	5
Cc1ccc(Oc2ncc(CN3CC(C)OC(C)C3)s2)cc1 (centres undefined)	8932	4.6	-13	6	7	-30	5
CC(C)CSc1nc2ccccc2n1CC(N)=O	8066	4.8	13	4	7	-23	10
CC(C)OC(=O)CN1C(=O)S/C(=C/c2ccc(N3CCCCC3)o2)C1=O	9754	3.5	7	-7	10	-6	-5
O=C(COc1ccccc1)NCC(=O)N/N=C/c1ccco1	1936	·	-29	·	·	-13	·
CCC(CC)C1C(C#N)=C(N)Oc2n[nH]c(C)c21 (centres undefined)	10953	0.2	-12	5	5	-8	13
Cc1ccc(S(=O)(=O)NCCNc2ccc([N+](=O)[O-])cc2)cc1	6552	0.7	-5	16	11	-9	7
OC12Oc3ccccc3C=C1N1CCC2CC1 (centres undefined)	4293	-3.5	-4	·	·	-5	6
O=C(CSc1nnc(-c2ccccc2)n1-c1ccc(Cl)cc1)NN=Cc1ccco1	·	-1.0	·	-10	-2	·	2
Nc1nc2c(ncn2C2CC(O)C(CO)O2)c(=O)[nH]1 (centres undefined)	·	7.4&6.4	·	1&3	5&3	·	5&5
O=C(CSc1nc2ccccc2o1)NCC(=O)c1ccccc1	2715	-1.7	14	·	·	-10	3
COc1ccc(NS(=O)(=O)c2ccc3nc(COc4ccc(C#N)cc4)[nH]c3c2)cc1	1991	1.2	8	1	12	-17	4
CCOC(=O)C1CCN(C2CC(=O)N(c3ccc(OCC)cc3)C2=O)CC1 (centres undefined)	3125	2.8	7	4	1	-27	-4
CC(=O)c1ccc(N2C(=NC(=O)COc3ccccc3)SC3CS(=O)(=O)CC32)cc1 (centres undefined)	5648	2.9	13	-7	4	15	0
COc1ccc(C(=O)COC(=O)CCS(=O)(=O)c2ccc(C)cc2)c(OC)c1	·	4.0	3	11	0	-7	4
CCC1=C(OC(=O)N(CC)CC)N2C(=O)OC(=NCCc3c[nH]c4ccccc34)[C@]2(Cc2ccccc2)[C@H]2C1=CC[C@H]1C(=O)N(CC)C(=O)[C@H]12	4271	·	-9	·	·	12	·
COc1ccc(C(=O)C(C)=NO)cc1OC	·	4.1	·	7	7	·	-1
CCOc1ccc(-n2c(O)c(C=NCCN(CC)CC)c(=O)[nH]c2=O)cc1	14409	2.0	-15	9	2	-8	3

4 structures already listed, arranged by length of the SMILES, low to high:
SMILES	Autofluor counter	Sa RN4220 lethal	BJeLR lethal	Mtb hypoxia rep	Mtb hypoxia rep growth	PrP UTR inh	ugtP null kill
OC12Oc3ccccc3C=C1N1CCC2CC1 (centres undefined)	4293	-3.5	-4	·	·	-5	6
Nc1nc2c(ncn2C2CC(O)C(CO)O2)c(=O)[nH]1 (centres undefined)	·	7.4&6.4	·	1&3	5&3	·	5&5
CCOc1ccc(-n2c(O)c(C=NCCN(CC)CC)c(=O)[nH]c2=O)cc1	14409	2.0	-15	9	2	-8	3
CCC1=C(OC(=O)N(CC)CC)N2C(=O)OC(=NCCc3c[nH]c4ccccc34)[C@]2(Cc2ccccc2)[C@H]2C1=CC[C@H]1C(=O)N(CC)C(=O)[C@H]12	4271	·	-9	·	·	12	·

Continuation.
SMILES	Autofluor counter	Sa RN4220 lethal	BJeLR lethal	Mtb hypoxia rep	Mtb hypoxia rep growth	PrP UTR inh	ugtP null kill
CN(CC(=O)Nc1ccccc1Cl)C(=O)Cn1cc(C(F)(F)F)ccc1=O	·	1.6	·	5	-3	-1	0
CC(C)c1ncc(C(O)c2cccc3ccccc23)n1C (centres undefined)	2496	-1.3	-3	·	·	-22	-4
COCc1ccc(O)c2ncccc12	3235	98*	10	-12	2	-5	98*
CCCCN(C(=O)c1nn(C)c(=O)c2ccccc12)c1c(N)n(CCC)c(=O)[nH]c1=O	?	5.9	·	5	8	-7	3
C1CC1C(=NN=C(C1CC1)C1CC1)C1CC1	4126	3.5	·	5	6	-19	1
CC(C)(C)OC(=O)NCCCCc1cn(CC(=O)N2CCN(C(=O)OC(C)(C)C)CC2)nn1	3888	5.6	2	-2	-1	-4	-2
CCn1c(-c2ccc(F)cc2)cnc1SCC(=O)N1CCc2ccccc21	·	4.8	3	17	11	·	-1
Brc1ccc(N=Cc2ccccn2)cc1	2533	4.9	-12	10	-4	-34	13
COCCNC(=O)C(C#N)=Cc1ccc(CNC(=O)C(=O)Nc2ccc(C)c(C)c2)o1	·	6.8	·	3	1	·	1
COc1ccccc1C(=O)NC(=O)COC(=O)c1ccc([N+](=O)[O-])cc1	5158	5.2	15	8	-6	-18	10
COc1cccc(C2=NOC(C(=O)NCc3ccc(F)cc3)C2)c1 (centres undefined)	9856	0.7	-2	2	3	·	1
Cc1ccc(C(=O)N2CCOCC2)cc1S(=O)(=O)N1CCCCC1	5757	1.3	6	0	4	-6	1
Cc1n[nH]c(C)c1Sc1ccccc1N	3865	8.5	11	12	11	-31	8
CCOC(=O)c1[nH]c(C)c(C(=O)OCC(=O)N2CC(=O)Nc3ccccc32)c1C	10062	5.9	6	15	-6	-5	7
N#Cc1ccc(CSc2nnc3ccccn23)cc1	4170	1.0	6	2	2	2	-2
CN(C)N1C(=O)/C(=C/c2ccco2)SC1=Nc1ccccc1	3325	1.9	4	-9	-6	-6	4
COc1ccc(CC(=O)OC(C)C(=O)c2ccc(C)cc2)cc1 (centres undefined)	6390	-1.3	6	-7	10	-17	-6
COCCCN1C(=O)C(=O)/C(=C(/O)c2ccc(S(=O)(=O)N3CCCCC3)cc2)C1c1ccc(O)c(OC)c1 (centres undefined)	4808	3.1	7	4	-2	-8	3
CCC12CSc3nc(Cl)ccc3N1C(=O)C(=O)N2C (centres undefined)	3598	3.7	-8	1	13	·	12
COc1ccccc1-c1ccc(=O)n(CC(=O)NC2CCc3ccccc32)n1 (centres undefined)	4011	8.6	0	3	8	-18	1
CC(=O)OCC(=O)c1ccc2ccn(C(C)=O)c2c1	10837	2.5	9	3	4	·	0
COc1ccc(C(=O)NCCNc2nc3c(C)cccc3cc2C#N)cc1OC	3325	7.4	-4	19	4	-4	5
CC(=O)N(c1cccc(Cl)c1)c1nc(C)cc(C)c1C#N	5844	5.2	-4	12	4	-26	0
Cc1cc(CN2CCN(CC(=O)Nc3cc(C(F)(F)F)ccc3-n3cncn3)CC2)no1	6550	-2.3	·	6	6	-25	4
O=C(NCc1cccnc1)c1sc2cc(Cl)ccc2c1Cl	11830	3.1	1	7	5	-17	0

(further entries)
SMILES	Autofluor counter	Sa RN4220 lethal	BJeLR lethal	Mtb hypoxia rep	Mtb hypoxia rep growth	PrP UTR inh	ugtP null kill
Cc1ccccc1NC(=O)CCNS(=O)(=O)c1cccc2nsnc12	2847	-5.9	-7	-11	-7	-12	-5
CN(CCNC(=O)c1cn(C)c2ccc(S(=O)(=O)N3CCCC3)cc2c1=O)CCc1ccccc1	9989	-2.5	7	8	8	-41	-1
CN(C)S(=O)(=O)c1ccc(C(=O)OCc2ccc(C#N)cc2)cc1	2965	-9.4	-2	13	7	-3	-6
CCCCCCn1c(N2CCN(c3cccc(Cl)c3)CC2)nc2c1c(=O)[nH]c(=O)n2C	?	2.8	-7	-3	17	0	5
CCOC(=O)C1CCCN(S(=O)(=O)c2ccc(S(=O)(=O)N3CCCC3)cc2)C1 (centres undefined)	6015	·	10	·	·	-22	·
Cc1cccc(OC(C)C(=O)Nc2cc(S(=O)(=O)N3CCCCC3)ccc2C)c1 (centres undefined)	3551	-9.7	·	-4	7	-15	-11
COc1ccc(-n2c(SCC(=O)Nc3nc(C)cs3)nnc2-c2ccoc2C)cc1	3769	5.0	2	2	2	-19	-3
O=S(=O)(c1ccccc1C(F)(F)F)N1C=CC(C(F)(F)F)=NCC1	5821	2.5	-10	4	-4	·	4
CN(C)S(=O)(=O)c1cccc(C(=O)OCC(=O)c2c(N)n(C)c(=O)n(C)c2=O)c1	4148	2.2	0	12	17	-16	7
CC1Cc2ccccc2N1C(=O)/C=C/c1cccc(F)c1 (centres undefined)	4793	7.8	-15	·	·	-130	-2
Cc1ccccc1S(=O)(=O)Cc1ccc(C(=O)NC(C)c2ccccc2)o1 (centres undefined)	4028	0.6	11	5	3	-9	3
CC1CN(C)C(C)CC1NCc1ccc2c(c1)OCO2 (centres undefined)	4483	2.6	8	·	·	12	7
Cc1ccc(C(=O)ONc2ccc(N=NC(=O)c3ccccc3O)cc2)cc1	9719	0.0	-10	3	-3	·	35
CCN1C(=O)C2C(c3ccc(-c4ccc(Cl)c(Cl)c4)c(OC)c3)N3CCCC[C@@]3(C(=O)OC)C2C1=O (some centres undefined)	·	-0.5&2.9	·	-7&-6	4&13	·	-2&2
CCn1c(SC)nnc1C1CCCN(CC(=O)Nc2ccccc2N2CCOCC2)C1 (centres undefined)	5866	-1.8	-1	4	4	-19	9
CCOC(=O)c1ccc(NC(=S)NCCCN2CCCCC2)cc1	22858*	3.7	12	1	1	-16	2
CCOc1ccc(CCNC(=O)CN2CCN(Cc3ccccc3F)C2=O)cc1OCC	4356	1.9	-7	1	-2	7	2
O=[N+]([O-])c1ccc(Oc2cccc(C(F)(F)F)c2)nc1	·	-3.4	-3	3	-1	-15	-1
CC(NC(=O)C1CCCO1)c1ccccc1 (centres undefined)	4843	-1.3	4	·	·	6	3
COC(CC(O)C(C)C(O)COCc1ccccc1)OC (centres undefined)	·	4.4&6.0&-0.2&2.4&3.5&7.5&3.3	·	-3&10&-6&7&7&13&11	-7&15&0&5&2&-2&7	·	0&3&0&2&-5&5&-1
C#CCOCCOCCOCCNc1nc(N2CCOCC2)nc(N2CCN(C(=O)[C@H](Cc3cc4ccccc4[nH]3)n3cc([C@@H](N)C(C)CC)nn3)CC2)n1 (some centres undefined)	3992	·	0	·	·	-19	·
O=C1CC(=C(c2ccccc2)c2ccccc2)C(=O)N1CCCCN1CCN(c2ccccc2)CC1	2713	-25	13	26	30	-12	-5
Cc1cc(NC(=O)Cn2nc(C)c([N+](=O)[O-])c2C)no1	4034	3.9	0	0	23	·	0
Cc1c(NC(=O)C(C)OC(=O)c2nc(Cl)ccc2Cl)c(=O)n(-c2ccccc2)n1C (centres undefined)	5678	0.0	2	4	0	-9	4
CCOC(=O)c1c(C)[nH]c(C(=O)N2CCN(C(=O)OCC)CC2)c1C	5645	4.8	-14	2	-3	-5	8

Later entries:
SMILES	Autofluor counter	Sa RN4220 lethal	BJeLR lethal	Mtb hypoxia rep	Mtb hypoxia rep growth	PrP UTR inh	ugtP null kill
COc1ccc(C2=NS(=O)(=O)N(C)C(C(=O)NCc3ccc4c(c3)OCO4)=C2)cc1OC	5954	6.4	1	5	-3	-4	8
CCCN1CCN(CCCNC(=O)Cn2ncc3c4ccccc4n(C)c3c2=O)CC1	6158	5.4	-3	4	1	-12	9
CN1CC(=NS(=O)(=O)c2ccccc2)N(C)C1=O	·	1.5	·	12	12	·	4
COc1cccc2cc(C(=O)NNC(=O)c3ccc(Br)cc3)c(=O)oc12	3200	-1.3	0	-2	11	6	-14
COc1ccc(OC)c(N=c2oc3c(OC)cccc3cc2C(=O)NCc2ccco2)c1	16799*	3.5	2	9	2	-18	-2
CS(=O)(=O)N(CC(=O)Nc1ccccc1-c1ccccc1)c1ccccc1	4815	8.0	-3	11	0	0	-1
COC(=O)c1ccc(C)c(NC(=O)CN(c2ccccc2)S(=O)(=O)N(C)C)c1	3527	4.9	10	7	0	-18	5
O=C(Nc1ccccc1O)N1c2ccccc2Sc2ccccc21	·	-6.0	-1	16	1	-15	-2
CC(=O)N1CCc2cc(S(=O)(=O)CCC(=O)N(C)Cc3ccco3)ccc21	5372	1.2	-5	10	14	-18	7

Bioassay records: PubChem, several laboratories
